Vaccinia mCherry: vaccinia inhibition (mCherry reporter); Vaccinia virus mCherry reporter infection, fluorescence; about a quarter of the inactives have no number; Potency, µM (top dose mostly 36.5 µM), for inactives: at the highest dose activity change, negative = inhibition, most hits filed as inhibitors; 310,000 tested, 0.63% active; AID 720579; active = well fitted inhibition curve with a large enough effect; inconclusive = small, poorly fitted or top-dose-only effect; inactive = no such curve, though single readings can be large or run the other way; tested in A549 cells; note: nearly all actives have a fitted effect of over 35% in size; inactives centre near -10
Vaccinia Venus: inhibitors of vaccinia virus (Venus reporter); 330,000 tested, 0.46% active; Potency, µM (doses to about 36.5 µM), without a hit: at the top dose activity change, negative = inhibition, most hits filed as inhibitors; AID 720580; Vaccinia virus Venus reporter expression, fluorescence; active means well fitted inhibition curve with a large enough effect; inconclusive means small, poorly fitted or top-dose-only effect; inactive means no such curve, though single readings can be large or run the other way; tested in A549 cells; note: nearly all actives have a fitted effect of over 30% in size; inactives centre near -10
The depositor's hits bear a star; i = inactive; ? = inconclusive; . = not tested or not shown; & = joins results of further samples; [ ] = remark or other dose. % is set by controls: 0 for no effect and ±100 for the full control effect; potency is the fitted concentration of half-maximal effect. Hits appear at their usual frequency; any-hit rate near 0.87%.

Under each structure – Vaccinia mCherry, Vaccinia Venus
- Cc1ccc2nc(-c3ccc(C)o3)c(Nc3ccc(F)cc3)n2c1
→ -14.4%, -13.8%
- CC(=O)c1c(C)nc2nonc2c1N
→ -10.6%, -5.4%
- Cc1cc(C)c(C#N)c(SCC2COc3ccccc3O2)n1 (configuration not stated)
→ -12.1%, -11.3%
- O=C(CCN1CCCCC1)N/N=C/c1c[nH]c2ccccc12
→ ?, ?
- Cc1cc(C)c(C)c(OCCCCn2cnc3ccccc3c2=O)c1
→ -13.5%, -10.1%
- N#C/C(=C/c1ccc(CNS(=O)(=O)c2ccccc2)o1)C(N)=O
→ -13.9%, -11.9%
- Cc1cc(C(C)(C)C)cc(C)c1S(=O)(=O)N1CCN(C(=O)c2cc([N+](=O)[O-])c[nH]c2=O)CC1
→ -11.9%, -12.7%
- Oc1ccccc1-c1cc(C(F)(F)F)nc(-c2ccccc2)n1
→ -14.3%, -1.3%
- COc1ccc(NC(=O)CN(C)CC(=O)Nc2cccc(F)c2)cc1Cl
→ i, -10.7%
- CSCCC(NC(=O)/C(=C/c1ccc2c(c1)OCO2)NC(=O)c1cccc([N+](=O)[O-])c1)C(=O)O (configuration not stated)
→ i, -7.9%
- Cn1c(O)c(/C=N/c2ccccn2)c(=O)n(C)c1=O
→ -18.8%, -4.9%
- COc1cc(C(=O)N(c2ccc(C)c(C)c2)C2C=CS(=O)(=O)C2)cc(OC)c1OC (configuration not stated)
→ -12.7%, 5.3%
- O=C(CS(=O)(=O)c1cccc2nsnc12)NCc1ccccc1Cl
→ -9.1%, -0.7%
- COc1ccc([C@H]2C[C@H](O)[C@@H](n3cc(-c4ccc(F)cc4)nn3)CN2Cc2cccs2)cc1
→ 10µM*, 10µM*
- Cc1cc(NC(=O)C(C)SCC(=O)OCC(=O)N(C)c2ccccc2)no1 (configuration not stated)
→ i, -0.5%
- CCC(C)c1ccc(S(=O)(=O)N2CCN(C(C)C(=O)NC3CCCC3)CC2)cc1 (configuration not stated)
→ -12.1%, -21.3%
- O=C(COC(=O)Cc1ccc(Cl)cc1)Nc1ccc(OC(F)F)cc1
→ -1.9%, -5.6%
- CCCn1c(Cc2ccccc2)n[nH]c1=S
→ ., -2.7%
- CCOC(=O)C1CCN(c2c(C(=O)c3ccc(C)cc3)cnc3ccc(F)cc23)CC1
→ -3.5%, -1.3%
- CC(=O)c1cccc(NC(=O)c2cc(-c3ccco3)on2)c1
→ 5.0%, 0.1%

(further entries)
Under each structure – Vaccinia mCherry, Vaccinia Venus
- CNc1snc(C)c1C(=O)OC(C)C(=O)Nc1cccc(C)c1 (configuration not stated)
→ -22.2%, -8.3%
- CCOCCCn1c(SCC(=O)NC2CCCCC2)nc2ccccc2c1=O
→ -4.5%, -15.7%
- CC(C)OCCCNC(=O)CSc1c2c(nc3ccc(Cl)cc13)CCCC2
→ -2.6%, -7.9%
- COc1cccc(-c2cc(C(=O)N3CCCCCC3)no2)c1
→ i, 2.0%
- COc1ccc2[nH]c3c(C)c4ccncc4c(C)c3c2c1
→ 7.08µM*, 10µM*
- CCOc1ccc(S(=O)(=O)N2CCN(C(=O)c3cc4c(s3)CCCC4)CC2)cc1
→ -12.1%, -9.9%
- c1ccc(-c2nc3ccccc3[nH]2)cc1
→ -15.0%, -14.6%
- CC(=O)c1c(C)nc(-c2ccccc2)nc1NC(=O)C(C)C
→ ., 4.2%
- c1ccc(CCCN2CCOCC2)cc1
→ -15.9%, -13.5%
- COc1ccc(-c2nc3sc(CCNC(=O)c4ccco4)c(C)n3n2)cc1
→ i, -9.0%
- CN(Cc1ccccc1)c1nc2c(S(=O)(=O)c3ccccc3)nnn2c2ccsc12
→ ?, -29.7%
- COc1ccc(Nc2c(C3CC3)nc3nc(C)cc(C)n23)cc1
→ 5.6%, -17.8%
- CC(C)n1c(O)c(N=NC(=O)Cc2csc(N3CCOCC3)n2)c2ccccc21
→ -13.4%, -7.8%
- Cc1cs/c(=N\N=C\c2cccc([N+](=O)[O-])c2)n1Cc1ccco1
→ -14.3%, -3.8%
- CC(NC(=O)COC(=O)Cc1cccs1)c1ccc(F)cc1 (configuration not stated)
→ i, -13.3%
- O=C(CNS(=O)(=O)N1CCOCC1)N/N=C/c1cccnc1
→ -6.1%, -19.7%
- O=C(NCC(=O)N(CC1CCCO1)C(C(=O)NC1CCCCC1)c1ccc(F)cc1)c1ccco1 (configuration not stated)
→ -1.0%, 5.1%
- COc1ccc(N2CC(C(=O)N[C@@H](C)C(=O)N[C@H](CO)c3ccccc3)CC2=O)cc1 (some centres not stated)
→ 27.3%, 1.2%
- CC1(C)CC(=O)C=C(c2n[nH]nc2C2CCCCC2)C1
→ i, -13.7%
- COc1cc(/C=C(\C#N)c2nc3ccccc3n2C)cc(OC)c1O
→ ?, 298.7%[activator]

Single records, from the list above. Screens in order: Vaccinia mCherry, Vaccinia Venus
CC1(C)CC(=O)C=C(c2n[nH]nc2C2CCCCC2)C1 reads i, -13.7%
CC(NC(=O)COC(=O)Cc1cccs1)c1ccc(F)cc1 (configuration not stated) reads i, -13.3%
CNc1snc(C)c1C(=O)OC(C)C(=O)Nc1cccc(C)c1 (configuration not stated) reads -22.2%, -8.3%
c1ccc(-c2nc3ccccc3[nH]2)cc1 reads -15.0%, -14.6%
COc1ccc(-c2nc3sc(CCNC(=O)c4ccco4)c(C)n3n2)cc1 reads i, -9.0%

The listing picks up with the 2 entries that preceded the break.
Under each structure – Vaccinia mCherry, Vaccinia Venus
- CC1(C)CC(=O)C=C(c2n[nH]nc2C2CCCCC2)C1
→ i, -13.7%
- COc1cc(/C=C(\C#N)c2nc3ccccc3n2C)cc(OC)c1O
→ ?, 298.7%[activator]
- Cc1ccc2ccccc2c1C(O)c1ncc(-c2cccc(C(F)(F)F)c2)[nH]1 (configuration not stated)
→ ?, -3.4%
- COc1ccc(CCNC(=O)Cn2c(=O)n(-c3ccc(OC)c(OC)c3)c(=O)c3ccccc32)cc1OC
→ -1.7%, -5.6%
- Cc1ccc(NC(=S)C2=C(O)c3ccccc3N(C)S2(=O)=O)cc1
→ -11.3%, 0.3%
- CC(Cc1ccc(O)cc1)NCC(O)c1ccc(O)c(O)c1 (configuration not stated)
→ -9.1%, -3.9%
- CC1CC(C)CN(C(=O)C(C)N2CCN(S(=O)(=O)c3ccc(Br)s3)CC2)C1 (configuration not stated)
→ -21.3%, -14.4%
- Cn1cc(C(=O)c2ccc(Cl)cc2Cl)cc1C(=O)O
→ -20.8%, -8.3%
- CC(C)[C@H](NC(=O)c1ccco1)C(=O)OCC(=O)c1ccc(Br)s1
→ -0.7%, -7.7%
- Cc1cc(OC(C)C(=O)N(Cc2ccco2)C2CCS(=O)(=O)C2)cc(C)c1Cl (configuration not stated)
→ 35.4%[activator], 5.0%
- Cc1ccc(N(CC(=O)NC(C)c2ccccc2)S(=O)(=O)c2c(C)noc2C)cc1 (configuration not stated)
→ -16.5%&-4.4%, -18.8%&-8.0%
- O=C(C1CCCCC1)N1CCC(c2nc3c(nnn3Cc3c(F)cccc3Cl)c(=O)[nH]2)CC1
→ i, -12.8%
- O=C1Nc2c(c(=O)[nH]c(=O)n2-c2ccccc2)C1(NS(=O)(=O)c1ccc(Cl)cc1)C(F)(F)F (configuration not stated)
→ -1.5%, 9.3%
- C/C(=N\NC(=O)c1ccc(C)cc1C)c1ccc2c(c1)Nc1ccccc1S2
→ ?, ?
- CCN(CC)C(=O)Cn1cnc2sc(C(=O)N3CCN(c4ccc(F)cc4)CC3)c(C)c2c1=O
→ -4.5%, -26.9%
- CC(=O)N1c2ccc(S(=O)(=O)N3CCCC(C(=O)Nc4cccc(Cl)c4)C3)cc2CC1C (configuration not stated)
→ -28.5%, ?
- O=C(Cc1ccccc1)c1ccccc1C(=O)N1CCCCC1
→ -17.5%, -4.1%
- O=C(CCCC(=O)OCC(Cl)=C(Cl)Cl)Nc1ccc(F)cc1
→ -8.7%, -2.2%
- CC1CCC(NC(=O)CNC(=O)c2ccc3ccccc3c2)CC1 (configuration not stated)
→ i, -22.0%
- N#CCC(=O)Nc1ccc(C(=O)OCC(=O)NCc2ccc3c(c2)OCO3)cc1
→ i, -4.6%
- O=C(CN1CCOCC1)Nc1ccccc1
→ -14.7%, -6.4%
- COc1ccccc1CNC(=O)CCCn1c(=O)c2ccccc2n(CC(=O)NC2CCCC2)c1=O
→ ., -4.8%

Next structures.
Under each structure – Vaccinia mCherry, Vaccinia Venus
- CCOc1ccc2oc(=O)cc(CN3CCN(c4ccc(OC)cc4)CC3)c2c1
→ -8.4%, -15.0%
- COCCn1c(SCC(=O)Nc2cc(C)on2)nc2cc(Cl)ccc2c1=O
→ -9.8%, -12.6%
- O=C(COC(=O)Cc1ccsc1)NCc1ccccc1
→ i, -15.9%
- Cc1nn(-c2ccccc2)c2[nH]c(=O)c(CNCCN3CCOCC3)cc12
→ -8.2%, -1.9%
- O=C(Nc1ccc(C(F)(F)F)cc1)C(Cc1ccccc1)n1cccc1 (configuration not stated)
→ -8.3%, -18.3%
- Cc1ccc(C2C(C#N)=C(N)Oc3n[nH]c(-c4ccccc4)c32)o1 (configuration not stated)
→ -10.1%, 5.4%
- O=C(Nc1ccc(C(=O)N2CCN(c3ccc(Cl)cc3)CC2)cc1)c1nsc2ccccc12
→ -16.1%, -9.8%
- C=CCNc1nc(Nc2cc(Cl)ccc2OC)nc(OC)n1
→ i, -11.6%
- CN(NS(=O)(=O)c1ccccc1)C(=O)c1ccccc1
→ -19.1%, 5.1%
- COCCn1c(SCC(=O)NCc2ccc(F)cc2)nc2ccccc21
→ -3.0%, -4.2%
- Cc1noc(NS(=O)(=O)c2ccc(NC(=O)c3ccc(F)cc3)cc2)c1C
→ -0.8%, -11.5%
- Cc1cccc(/N=C2/NC(=O)C(Cc3ccccc3)S2)n1 (configuration not stated)
→ -14.8%, -5.8%
- Cc1cccc(C)c1NC(=S)NCCCN1CCCC1=O
→ -13.4%, -12.4%
- CC(=O)NS(=O)(=O)c1ccc(NC(=O)CSc2ccc(Cl)cc2)cc1
→ i, -4.7%
- CCC(=O)[C@@]1(C)[C@H](C)C[C@H]2[C@@H]3CCC4=CC(=O)C=C[C@]4(C)[C@H]3[C@@H](O)C[C@@]21C
→ -7.2%, -21.4%
- Cc1cccc(OCC(=O)Nc2nnc(S(=O)(=O)N3CCc4ccccc43)s2)c1
→ -3.2%[7.34 µM], 3.6%[7.34 µM]
- Cc1ccc(S(=O)(=O)N2CCOCC2)cc1C(=O)Nc1nc(-c2ccccn2)cs1
→ ?, ?
- COc1ccc(NC(=O)C2CCN(c3ccc(Sc4ccc(C)cc4)nn3)CC2)c(OC)c1
→ -5.9%, -0.5%
- Cc1oc(-c2cccc(NC(=O)c3ccccn3)c2)nc1CNC(=O)c1ccc(C(F)(F)F)cc1
→ -18.7%, -6.9%
- C[C@@H]1CCCCO[C@H](CN(C)C(=O)C2CCCCC2)[C@@H](C)CN([C@H](C)CO)C(=O)c2cc(N(C)C)ccc2O1
→ -8.0%, -10.7%

(list continues)
Under each structure – Vaccinia mCherry, Vaccinia Venus
- O=C(CNC(=S)N(Cc1ccccc1)Cc1cccnc1)N1CCOCC1
→ -18.6%, -6.0%
- Cc1ccnc(NC(=O)CCc2c[nH]c3ccccc23)c1
→ -3.2%, -22.5%
- O=S(NCc1ccco1)C12CC3CC(CC(C3)C1)C2 (configuration not stated)
→ i, 2.0%
- O=C(NCc1ccc(F)cc1F)[C@@H]1CCCN1C(=O)[C@@H]1CCCN1C(=O)c1ccc(Cl)cc1
→ i, -1.3%
- CCc1ccc(NS(=O)(=O)c2cc(OC)ccc2OC)cc1
→ ?, ?
- CC(C)c1cnc2c(c1SCC(=O)Nc1cccc([N+](=O)[O-])c1)c(=O)n(C)c(=O)n2C
→ -18.0%, -19.6%
- CC(=O)c1ccc(NC(=O)c2cccc(NC(=O)c3ccccc3)c2)cc1
→ -12.9%, -8.2%
- CC(C)(C)CC(=O)NCCCN1CCOCC1
→ -4.9%, -9.7%
- COc1ccc(C(=O)NCCCCCC(=O)O)cc1OC
→ i, 0.1%
- CCC1CN(CCNC(=O)c2cc(C(C)C)nn2C)Cc2cc(OC)ccc2O1 (configuration not stated)
→ -19.0%, -18.9%
- COc1cccc(NC(=O)C2CCN(c3nn4cc(-c5ccc(F)cc5)nc4s3)CC2)c1
→ i, -15.1%
- CCOC(=O)c1c(NS(C)(=O)=O)sc2c1CCC(C)C2 (configuration not stated)
→ ., -14.6%
- Brc1ccc(-n2cnc(-c3ccccc3)c2)cc1
→ ?, ?
- COC(=O)c1ccc2nc(-c3ccc(Cl)cc3)c(Cc3cccc(F)c3)n2c1
→ 21.7%, 3.1%
- CCOc1ccccc1CN1CCc2nc(N3CCN(C)CC3)ncc2C1
→ -10.3%, -5.0%
- Cc1ccc(Cl)cc1NC(=O)C(=O)N1CCCCC1
→ i, -9.5%
- OC1(c2cccnc2)CC2CCC(C1)N2Cc1nnnn1Cc1ccccc1 (configuration not stated)
→ -13.3%, -8.6%
- Nc1ncnc2c1ncn2[C@@H]1O[C@H](C(=O)NS(=O)(=O)c2c(Cl)nc3sccn23)[C@@H](O)[C@H]1O
→ 9.8%, -3.8%
- O=C(NCC(O)c1ccccc1)c1ccc(Cl)c(S(=O)(=O)N2CCCCC2)c1 (configuration not stated)
→ -27.5%, -26.2%
- CCOc1ccc(NC(=O)C2C3c4ccccc4C(c4ccccc43)C2C(=O)O)cc1 (configuration not stated)
→ i, -5.0%
- COc1ccc(C(=O)NCCN2CCOCC2)cc1[N+](=O)[O-]
→ -11.0%, -13.9%
- CCCCOc1ccc(CNC(=O)C2CCCN(c3nnc(-n4c(C)ccc4C)s3)C2)cc1 (configuration not stated)
→ -21.9%, -8.7%

High-throughput results as filed in PubChem BioAssay.
